# Env fusion inh: blocks HIV Env-driven cell-cell fusion. HeLa-JRFL Env/CEM21 cell fusion, luciferase. inhibition, % at 12.3 µM. 360,000 tested, 1.1% active. AID 651610;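 active means mean replicate inhibition score of at least 50 and every replicate individually at or above 50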;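 further: 0% = plate neutral controls and 100% = maraviroc near 300 nM; one replicate is shown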
# CSC inhib: cancer stem cell inhibition. cancer stem cell-like cells viability, luminescence. 300,000 tested, 1.1% active. inhibition, % at 7.5 µM;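 active means mean at 75% or more and at least half the replicates too; tested in HMLE shEcad cells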;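 further: 0% = median of negative and 100% = median of positive control wells; the first replicate is given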
# Yeast UUG start: yeast start codon fidelity modulation | S. cerevisiae UUG-firefly luciferase reporter, luminescence/redox ratio | activity score, % at 18.7 µM | 350,000 tested, 0.13% active;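 active means replicate mean at a twofold rise or more, about +100% in these data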;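 further: firefly luciferase made from a UUG start codon reports start codon fidelity; reporter light over untreated wells divided by growth signal over untreated wells; some hits fall short of that in this replicate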
# MT1-MMP act inh: MT1-MMP (human) activation inhibition; P50281; HT1080 RFP-PRO-GFP cells, GFP/RFP ratio fluorescence, overnight; percent of plate control window, DMSO zero; GFP/RFP ratio change, % at 20 µM; 360,000 tested, 0.061% active; AID 651647;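 active means GFP/RFP ratio change of at least 30% with cell ATP level not reduced by more than half and red fluorescence within 50% of control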; further: strong numbers were not always called active
#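 Test system: HT1080 cells expressing an RFP-PRO-GFP fluorescent reporter construct / Compound dosing: single-point 20 µM compound, 1% DMSO / Schedule: cells overnight before dosing, compound overnight, 37 °C, 5% CO2 / Evaluation: GFP/RFP fluorescence ratio / Control set: DMSO and RFP-L50D-GFP cell wells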
# eIF4H inh: inhibitors of RNA binding by human eIF4H | Q15056 | eIF4H fluorescence polarization binding assay | inhibition, % at 35 µM | 290,000 tested, 0.94% active | AID 2012;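 active means 50% or more with normal probe brightness, or confirmed in later tests; about a fifth of its hits are not listed in these tables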;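 further: calls also rest on retests at 20 µM and on dose response follow-up; 0% = protein and probe with vehicle and 100% = probe without protein; strong numbers were not always called active; many hits fall short of the cut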
# Rce1 inh: blocks yeast Ras-converting enzyme; Q03530; yeast membranes, quenched prenylated peptide cleavage fluorescence; calls only; 290,000 tested, 0.27% active;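 active means fall in fluorescence gain of 50% or more versus controls, with final raw signal at or below 3038400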;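 further: plate controls were neutral control wells for no effect and wells lacking membranes for full effect; tested at 10 µM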
# PABP polyA inh: PABP-poly(A) binding inhibition | 290,000 tested, 1% active | AID 2014 | inhibition, % at 35 µM | P11940 | PABP-poly(A) RNA binding, fluorescence polarization;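 active means 50% or more with normal probe brightness, or confirmed in later tests; about a fifth of its hits are not listed in these tables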;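 further: calls also rest on retests at 20 µM and on dose response follow-up; controls were probe without protein and protein plus probe with vehicle; some compounds called inactive have numbers as strong as hits; many hits fall short of the cut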
# Target sequence (P11940 whole entry, looked up): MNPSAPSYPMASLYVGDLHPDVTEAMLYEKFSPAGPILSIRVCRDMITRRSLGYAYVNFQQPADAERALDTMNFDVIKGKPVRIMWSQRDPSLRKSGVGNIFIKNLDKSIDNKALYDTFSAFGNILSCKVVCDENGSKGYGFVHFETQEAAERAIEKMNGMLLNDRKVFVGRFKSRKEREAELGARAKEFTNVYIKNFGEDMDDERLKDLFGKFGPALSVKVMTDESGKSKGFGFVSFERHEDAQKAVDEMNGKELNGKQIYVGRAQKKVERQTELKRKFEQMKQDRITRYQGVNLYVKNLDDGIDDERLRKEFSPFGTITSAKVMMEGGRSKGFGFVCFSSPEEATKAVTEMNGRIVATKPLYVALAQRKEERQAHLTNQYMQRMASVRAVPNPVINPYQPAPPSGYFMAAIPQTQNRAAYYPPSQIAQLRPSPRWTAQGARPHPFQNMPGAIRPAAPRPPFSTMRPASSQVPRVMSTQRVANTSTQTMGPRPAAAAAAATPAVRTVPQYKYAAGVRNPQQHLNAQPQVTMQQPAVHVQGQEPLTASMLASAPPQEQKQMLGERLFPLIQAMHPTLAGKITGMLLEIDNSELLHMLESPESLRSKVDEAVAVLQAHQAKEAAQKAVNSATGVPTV
# MT1-MMP act inh RFP: also measured in MT1-MMP act inh; calls as there; RFP signal change, %; measured here: RFP expression control read;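 0 = vehicle wells; hits needed this value within 50% of zero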
# * hit, by the source's call; i = inactive; · = not tested or not shown; + = active, no number. These rows are one share of the data; count on the stated rates, not on these rows.
# Field names: A = Env fusion inh; B = CSC inhib; C = Yeast UUG start; D = MT1-MMP act inh; E = MT1-MMP act inh RFP; F = eIF4H inh; G = Rce1 inh; H = PABP polyA inh
CCOC(=O)c1c(NC(=O)C2CCN(S(=O)(=O)c3cccs3)CC2)sc(C)c1C
  A: ·	B: -5	C: -16	D: -2	E: -4	F: -12	G: i	H: 3
COc1cccc(CNc2cc(C)ccn2)c1O
  A: -13	B: -3	C: -15	D: 1	E: 0	F: 24	G: i	H: 3
COc1ccc(NC(=O)Cn2nnc(-c3ccccc3NC(=O)c3ccco3)n2)cc1
  A: ·	B: 7	C: 5	D: -4	E: -8	F: -10	G: i	H: -1
CCCOc1ccc(C(=O)CCN2CCN(C(=O)OCC)CC2)cc1
  A: -12	B: ·	C: 6	D: -8	E: -4	F: 8	G: ·	H: 1
COc1ccc(C(=O)N/N=C/c2ccc(OC)c(COc3ccc(F)cc3)c2)cc1
  A: 16	B: 1	C: -5	D: -2	E: -4	F: -1	G: i	H: -1
CN(c1ccccc1C(=O)NCC1CCCO1)S(C)(=O)=O (centres undefined)
  A: -113	B: -10	C: 3	D: -1	E: -2	F: -4	G: i	H: 2
COc1ccc(NC(=O)C2(S(=O)(=O)c3ccc(C)cc3)CC2)cc1
  A: -1	B: ·	C: -3	D: 2	E: -1	F: -10	G: i	H: 8
O=C(NC1CCCN(Cc2ccccc2F)C1)c1cccs1 (centres undefined)
  A: -6	B: 18	C: -16	D: 1	E: 3	F: -8	G: i	H: 10
CC(=O)Nc1ccc(N(C(=O)CNC(=O)c2ccco2)C(C(=O)NCc2ccco2)c2ccccc2F)cc1 (centres undefined)
  A: -29	B: -8	C: ·	D: 0	E: 4	F: -5	G: i	H: 13
O=S1(=O)CC(N2CCC(Cc3ccccc3)CC2)CN1Cc1ccccc1 (centres undefined)
  A: 13	B: ·	C: -2	D: 4	E: -4	F: ·	G: ·	H: ·
Cc1cc(C)c2sc(NC(=O)CN3C(=O)CCC3=O)nc2c1
  A: 15	B: 8	C: ·	D: -2	E: 1	F: -2	G: i	H: 4
N=C(N)c1ccc(/C=C/c2ccc(C(=N)N)cc2O)cc1
  A: 1	B: -11	C: ·	D: 3	E: -1	F: 37	G: +	H: 47
CN1c2ccccc2C(O)=C(C(=S)Nc2ccccc2)S1(=O)=O
  A: 14	B: -9	C: -23	D: 1	E: 4	F: 1	G: i	H: -4
CC(CC(=O)Nc1cccc(S(=O)(=O)N2CCCCC2)c1)c1ccccc1 (centres undefined)
  A: 34	B: -5	C: ·	D: -5	E: -13	F: ·	G: ·	H: ·
Cc1cccc(NC(=O)C2Cc3ccccc3O/C2=N\O)c1 (centres undefined)
  A: -24	B: -4	C: -7	D: -4	E: -2	F: -2	G: i	H: -5
COc1c(Br)cc([N+](=O)[O-])c(OC)c1C(=O)NC(=O)Nc1c(Cl)cccc1Cl
  A: -24	B: -10	C: 26	D: 2	E: 3	F: 3	G: i	H: 2
COc1cc(C(=O)NCC(c2ccco2)N2CCCC2)ccc1OCc1ccccc1 (centres undefined)
  A: 2	B: ·	C: -9	D: 1	E: 1	F: ·	G: ·	H: ·
C=CCC[C@H](Cc1ccc(F)cc1)C(=O)OC[C@@H]1CCCN1C(=O)[C@@H](CC=C)CC(=O)NCCO
  A: 41	B: ·	C: 10	D: -1	E: -2	F: ·	G: ·	H: ·
O=c1c2ccccc2c(C=Nc2cccc(S(=O)(=O)NC3=NCCCCC3)c2)c(O)n1Cc1ccccc1
  A: 10	B: -8	C: ·	D: -4	E: -4	F: 10	G: i	H: -5
Cc1ccc(Nc2ncccc2C(=O)O)cc1C
  A: ·	B: -12	C: -19	D: 0	E: 4	F: 6	G: i	H: 22
CCOC(=O)C1CCCN(c2c(NCCN(CC)c3ccccc3)c(=O)c2=O)C1 (centres undefined)
  A: 24	B: -12	C: -25	D: 7	E: 3	F: 2	G: i	H: -6
CC1CC(C)CN(S(=O)(=O)c2ccc(C(=O)N3CCOCC3)cc2)C1 (centres undefined)
  A: -10	B: -13	C: -17	D: -1	E: -2	F: -4	G: i	H: -1
CCN(CC)CCNc1nc2cc(OC)c(OC)cc2c2nc(-c3ccccc3)nn12
  A: -62	B: -1	C: 2	D: 9	E: -2	F: -4	G: i	H: -10
CN(Cc1ccccc1)S(=O)(=O)c1ccc(NC(=O)C2CCCCC2C(=O)O)cc1 (centres undefined)
  A: 3	B: -12	C: -19	D: 3	E: -2	F: ·	G: ·	H: ·
COc1cc(C(=O)Oc2ccccc2N)cc(OC)c1OC
  A: ·	B: -10	C: 5	D: 0	E: -3	F: -2	G: i	H: 2
CCCCOc1ccc(C(=O)N2CCN(c3ncccn3)CC2)cc1
  A: -25	B: 7	C: 2	D: 3	E: 4	F: -8	G: i	H: -6
Cc1nc(NC(=O)CSc2nccn2C)sc1C(=O)N(C)C
  A: -17	B: 13	C: -12	D: 5	E: 2	F: -15	G: i	H: 2
CC1CC(C)CN(C(=O)CSc2nnc(-c3ccc(Cl)s3)o2)C1 (centres undefined)
  A: 12	B: 23	C: 28	D: 2	E: 1	F: 0	G: i	H: -2
Cc1c(NS(=O)(=O)c2ccc(N3CCN(C)CC3)c([N+](=O)[O-])c2)c(=O)n(-c2ccccc2)n1C
  A: 13	B: -2	C: ·	D: 4	E: 1	F: 4	G: i	H: -3
O=[N+]([O-])c1ccc2nc(SCc3cn4cc(Cl)ccc4n3)[nH]c2c1
  A: 112*	B: -5	C: ·	D: -1	E: -2	F: 14	G: i	H: 10
Cc1ccc(CN2CCC(C(=O)Nc3ccc(Oc4cccnc4)cc3)CC2)cc1
  A: 13	B: ·	C: 9	D: 1	E: -9	F: -11	G: i	H: -2
O=C(Nc1ccc(N2CCOCC2)cc1)c1csc([C@@H]2C[C@H](O)[C@@H](CO)O2)n1
  A: -27	B: ·	C: -23	D: 2	E: 3	F: ·	G: ·	H: ·
FC(F)(F)c1nc(N2CCN(c3ccccc3)CC2)nc2c1CCCCC2
  A: -46	B: 65	C: 0	D: 2	E: 2	F: -6	G: i	H: 4
Cc1cc(S(=O)(=O)N2CCOCC2)ccc1OCC(=O)N1CCCC1
  A: -8	B: -6	C: -5	D: 3	E: 7	F: -2	G: i	H: 2
COc1ccc(S(=O)(=O)N2CCc3ccccc32)cc1C(=O)NCC(c1ccco1)N1CCCC1 (centres undefined)
  A: ·	B: -28	C: -10	D: 8	E: 2	F: ·	G: ·	H: ·
Cc1ccc(NC(=O)CSc2ncc3ccccn23)cc1C
  A: 1	B: -15	C: ·	D: -3	E: 4	F: 5	G: ·	H: 3
Cn1cc(Br)c(-c2cccc(N3C(=O)CCCC3=O)c2)n1
  A: 8	B: -16	C: ·	D: -5	E: -2	F: -11	G: i	H: -1
NC(=O)c1ccc(-n2nnnc2SCC(=O)NC2CCCCC2)cc1
  A: 15	B: ·	C: 1	D: 0	E: 2	F: 4	G: i	H: 2
Cc1csc(NC(=O)Cc2ccccc2[N+](=O)[O-])n1
  A: -4	B: 0	C: ·	D: 3	E: 4	F: -3	G: i	H: -3
CCCCn1c(N)c(N(CC(C)C)C(=O)c2ccc3c(c2)NC(=O)C(C)S3)c(=O)[nH]c1=O (centres undefined)
  A: 14	B: -17	C: -18	D: -4	E: 1	F: -4	G: i	H: 0
CNC(=O)N1c2ccccc2CCc2ccccc21
  A: -11	B: 6	C: 9	D: 0	E: -5	F: -22	G: i	H: 3
O=C(NC1CC1)C1CCN(Cc2cnn(-c3ccccc3)c2-n2cccc2)CC1
  A: -37	B: -2	C: -3	D: 0	E: 5	F: -9	G: i	H: 0
COc1ccccc1C(=O)NC(CCSC)C(=O)NCC(c1cccs1)N(C)C (centres undefined)
  A: ·	B: 7	C: ·	D: -2	E: -1	F: ·	G: i	H: ·
Cc1cc(C)cc(OCc2nc(-c3cccnc3)no2)c1
  A: -70	B: -2	C: ·	D: -2	E: 0	F: -6	G: i	H: 7
O=C(Nc1cc([N+](=O)[O-])ccc1O)c1cccc(C(=O)Nc2cc([N+](=O)[O-])ccc2O)c1
  A: 2	B: -11	C: -1	D: 4	E: -2	F: ·	G: i	H: ·
CCc1c(C)nc(N2CCN(c3cccc(OC)c3)CC2)[nH]c1=O
  A: 10	B: -1	C: 6	D: 1	E: -2	F: 17	G: i	H: -5
COc1ccccc1[C@@H]1C(c2cccc(Cl)c2)=NN(c2ccc(Br)cc2)[C@H]1C(=O)N1CCOC1=O
  A: 39	B: 21	C: -17	D: 5	E: 7	F: -1	G: i	H: 3
CCCCSc1nc2c(c(=O)n1CC)SC(C)C2 (centres undefined)
  A: 9	B: 11	C: -10	D: -4	E: -4	F: -6	G: i	H: -8
Cc1cc(/C=N/N2CCN(C)CC2)c(C)n1-c1ccc(Cl)cc1
  A: -9	B: 5	C: -9	D: -3	E: -1	F: 4	G: i	H: -3
Clc1ccc2c(c1)C(C1=NCCN1)c1ccccc1CS2 (centres undefined)
  A: 113*	B: 41	C: ·	D: -12	E: -15	F: 0	G: i	H: 4

# Shown with bars between the fields: part of the list above
compound | Env fusion inh | CSC inhib | Yeast UUG start | MT1-MMP act inh | MT1-MMP act inh RFP | eIF4H inh | Rce1 inh | PABP polyA inh
CCc1c(C)nc(N2CCN(c3cccc(OC)c3)CC2)[nH]c1=O | 10 | -1 | 6 | 1 | -2 | 17 | i | -5
COc1ccccc1[C@@H]1C(c2cccc(Cl)c2)=NN(c2ccc(Br)cc2)[C@H]1C(=O)N1CCOC1=O | 39 | 21 | -17 | 5 | 7 | -1 | i | 3

# Shown with values under each structure: 4 of the compounds above
# Below each SMILES – Env fusion inh | CSC inhib | Yeast UUG start | MT1-MMP act inh | MT1-MMP act inh RFP | eIF4H inh | Rce1 inh | PABP polyA inh
- COc1ccc(NC(=O)Cn2nnc(-c3ccccc3NC(=O)c3ccco3)n2)cc1
    · | 7 | 5 | -4 | -8 | -10 | i | -1
- CCCOc1ccc(C(=O)CCN2CCN(C(=O)OCC)CC2)cc1
    -12 | · | 6 | -8 | -4 | 8 | · | 1
- COc1ccc(C(=O)N/N=C/c2ccc(OC)c(COc3ccc(F)cc3)c2)cc1
    16 | 1 | -5 | -2 | -4 | -1 | i | -1
- CN(c1ccccc1C(=O)NCC1CCCO1)S(C)(=O)=O (centres undefined)
    -113 | -10 | 3 | -1 | -2 | -4 | i | 2

# New compounds follow.
# Field names: A = Env fusion inh; B = CSC inhib; C = Yeast UUG start; D = MT1-MMP act inh; E = MT1-MMP act inh RFP; F = eIF4H inh; G = Rce1 inh; H = PABP polyA inh
O=C(c1ccc(NC2=NC3CS(=O)(=O)CC3S2)cc1)N1CCN(c2ccccc2F)CC1 (centres undefined)
  A: -4	B: -6	C: -14	D: -1	E: 0	F: 2	G: i	H: -11
O=C(NCN1C(=O)C2C3C=CC(C3)C2C1=O)Nc1ccccn1 (centres undefined)
  A: ·	B: -13	C: -16	D: 2	E: 3	F: 7	G: i	H: 8
Cc1cc(F)ccc1S(=O)(=O)Nc1ncnc2scc(-c3ccc(F)cc3)c12
  A: ·	B: 24	C: ·	D: -3	E: -3	F: 11	G: i	H: -8
COc1ccc(COC(=O)Nc2cc3c(C(F)(F)F)nn(C)c3s2)cc1
  A: ·	B: -13	C: -27	D: -4	E: -3	F: -10	G: i	H: 2
CC(=O)NCCCNS(=O)(=O)c1ccc(C)cc1
  A: 7	B: -7	C: ·	D: 3	E: 3	F: -1	G: i	H: -7
Cc1cc(C(=O)N/N=C/C=C/c2ccc3c(c2)OCO3)n[nH]1
  A: ·	B: -2	C: 12	D: 3	E: 3	F: 0	G: i	H: -3
O=C(COC(=O)/C=C/c1cccs1)Nc1nc(-c2cccc(Br)c2)cs1
  A: -22	B: -3	C: 0	D: 6	E: -1	F: -6	G: i	H: 8
O=C(CCCOc1ccccc1)Nc1cccc(C(=O)O)c1
  A: ·	B: 3	C: -27	D: 2	E: 0	F: -1	G: i	H: -3
COc1ccc2cc(/C(C)=N/NC(=O)c3cc(C)oc3C)ccc2c1
  A: -1	B: ·	C: -13	D: 2	E: 3	F: ·	G: ·	H: ·
NC(Cc1ccc(F)cc1)c1csc(Nc2ccc(C(=O)NCCCO)cn2)n1 (centres undefined)
  A: -16	B: ·	C: -12	D: 2	E: 10	F: ·	G: ·	H: ·
